Mtb growth – M. tuberculosis H37Rv growth inhibitors, H37Rv strain (AID 1626); M. tuberculosis H37Rv growth inhibition; higher % means a stronger effect; inhibition, % at 10 µM; hits with a dose series show IC50 in µM; actives 0.95% (n = 220,000);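 active means confirmed in a dose series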;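 further: bacteria incubated seven days before Alamar blue readout; 0% = bacteria only wells and 100% = bacteria with antibiotic wells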
Mtb bLac sens – beta-lactam sensitization of Mtb H37Rv | M. tuberculosis H37Rv growth with meropenem, percent inhibition; hits of this screen are not shown here | inhibition, % at 25 µM | actives 0.27% (n = 330,000);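 active means about 74% or more and at least 40 points above the plate without the antibiotic, then above 30% in a dose series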;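 further: growth measured after seven days incubation then overnight dye step; 0% = bacteria only wells and 100% = bacteria with antibiotic; twin plates without the antibiotic show which effects depend on it; some results filed as inactive read as strong as hits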
RecA intein inh – blocks M. tuberculosis RecA intein splicing; P9WHJ3; AID 2221; cell-free RecA intein splicing, fluorescence; inhibition, %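 (about 9 µM by stock and volumes)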; actives 0.75% (n = 290,000); in the data active means inhibition above about 30%;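 further: 0% = vehicle wells and 100% = reference inhibitor control wells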
Target sequence (P9WHJ3 whole entry, looked up): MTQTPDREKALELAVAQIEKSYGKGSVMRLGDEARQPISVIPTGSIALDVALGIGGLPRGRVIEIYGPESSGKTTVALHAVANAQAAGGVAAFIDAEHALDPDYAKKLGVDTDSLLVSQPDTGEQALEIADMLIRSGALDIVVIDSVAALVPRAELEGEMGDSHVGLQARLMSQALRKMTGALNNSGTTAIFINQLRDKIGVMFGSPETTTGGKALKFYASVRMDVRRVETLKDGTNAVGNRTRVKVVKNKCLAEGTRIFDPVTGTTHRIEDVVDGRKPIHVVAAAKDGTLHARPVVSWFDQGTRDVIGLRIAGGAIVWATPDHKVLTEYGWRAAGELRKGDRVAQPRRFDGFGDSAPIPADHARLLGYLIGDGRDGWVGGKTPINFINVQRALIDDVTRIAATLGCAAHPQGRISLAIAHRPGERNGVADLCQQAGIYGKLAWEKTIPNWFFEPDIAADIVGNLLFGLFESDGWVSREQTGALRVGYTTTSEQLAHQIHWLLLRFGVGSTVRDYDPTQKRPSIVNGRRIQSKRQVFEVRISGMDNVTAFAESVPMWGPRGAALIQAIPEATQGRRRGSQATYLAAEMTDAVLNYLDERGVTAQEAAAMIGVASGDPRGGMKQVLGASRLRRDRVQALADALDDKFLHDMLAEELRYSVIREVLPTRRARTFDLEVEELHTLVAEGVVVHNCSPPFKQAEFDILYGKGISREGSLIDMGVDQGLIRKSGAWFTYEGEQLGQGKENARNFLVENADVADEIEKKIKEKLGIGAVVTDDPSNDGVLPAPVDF
YopH inh – inhibitors of Yersinia enterocolitica YopH tyrosine phosphatase. actives 0.16% (n = 140,000). AID 898. inhibition, %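 (about 10 µM by stock and volumes)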. fluorescence Ex485/Em525;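 active means inhibition of 50% or more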;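 further: controls were vehicle for no effect and minimum signal wells for full effect; inactives centre near -20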
Arbovirus anti – antivirals against arbovirus infection. arbovirus infection cell-based antiviral screen. inhibition, % at 10 µM. actives 0.37% (n = 200,000). AID 1251;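 active means inhibition from about 30%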;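 further: bluetongue infection of BSR cells; cell survival read as ATP light after 72 h; 0% = infected wells without compound and 100% = uninfected wells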
Arbovirus anti repeat – further read-out of Arbovirus anti, marked with its call; inhibition, %; measured here: 10K subset replicate screen; many hits read low in the repeat;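 first of two repeat runs on a subset; 0% = infected and 100% = uninfected wells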
Active calls of the source: *.

What do the screens show for `CCOC(=O)C1(Cc2cccc(F)c2)CCN(C(=O)c2cnccn2)CC1`?
Mtb growth: 0%; Mtb bLac sens: -10; RecA intein inh: 3.0; Arbovirus anti: 0

How did Cc1ccc(-c2nn(CC(=O)NCC3CCCO3)c(=O)c3ccccc23)cc1 (stereo not given) do in these assays?
Mtb growth: 2%; Mtb bLac sens: 70; RecA intein inh: -2.3; YopH inh: -18; Arbovirus anti: -1

What do the screens show for `CCC(=O)NS(=O)(=O)c1cccnc1Nc1ccc(Cl)cc1`?
Mtb growth: 1%; Mtb bLac sens: -7; RecA intein inh: 4.3; YopH inh: -14; Arbovirus anti: 8

Results for Cn1c(=O)c2c(ncn2CC(=O)OCC(=O)c2ccc(F)c(F)c2)n(C)c1=O ?
Mtb bLac sens: -15; RecA intein inh: -0.4

Results for O=S(=O)(NCc1ccc2c(c1)OCO2)c1cnc[nH]1 ?
Mtb growth: 45%; Mtb bLac sens: -3; RecA intein inh: -1.0; YopH inh: -41; Arbovirus anti: 4; Arbovirus anti repeat: 1

What do the screens show for `Cc1cccc(NC(=O)c2cc([N+](=O)[O-])ccc2N2CCCCC2)n1`?
Mtb growth: 10%; Mtb bLac sens: -7; RecA intein inh: 3.5; Arbovirus anti: -3

How did CCCn1cc(CN2CCC(Oc3ccc(C(=O)N4CCCC4)cc3)CC2)c(C)n1 do in these assays?
Mtb bLac sens: -2; RecA intein inh: -0.3

What do the screens show for `c1ccc(OCCSc2nc3ccccc3o2)cc1`?
Mtb growth: 8%; Mtb bLac sens: 15; RecA intein inh: 2.7; YopH inh: -10; Arbovirus anti: 12

How did O=C(NCc1ccccc1)N1CCOCC1 do in these assays?
Mtb growth: -3%; Mtb bLac sens: -10; RecA intein inh: -2.9

What do the screens show for `Cc1cc(C(=O)NCc2cccs2)nn1C`?
Mtb growth: -2%; Mtb bLac sens: -2; RecA intein inh: -9.2

Results for CCSc1cc(N2CCOCC2)nc(-c2ccc(Cl)cc2)n1 ?
Mtb growth: -5%; Mtb bLac sens: -2; RecA intein inh: 1.6; YopH inh: -34; Arbovirus anti: -1

Results for COc1ccc(/C=N/N2CCN(c3ccc(Cl)cc3)CC2)cc1 ?
Mtb bLac sens: 3; RecA intein inh: 4.8

How did CC(C)/C(=N\NS(=O)(=O)c1ccc(Br)cc1)c1cccs1 do in these assays?
Mtb growth: 1%; Mtb bLac sens: -7; RecA intein inh: 6.3; Arbovirus anti: 5

What do the screens show for `Cc1cc2[nH]ncc2cc1NC(=S)NC(=O)c1ccccc1`?
Mtb growth: 3%; Mtb bLac sens: 0; RecA intein inh: 39*; YopH inh: -37; Arbovirus anti: -2

What do the screens show for `COC(=O)c1ccccc1NC(=O)c1ccc(COc2ccc3c(c2)CCC3)cc1`?
Mtb growth: -9%; Mtb bLac sens: 6; RecA intein inh: -1.7; YopH inh: -17; Arbovirus anti: -3

How did COc1ccccc1NS(=O)(=O)c1cc(NC(=S)NCC2CCCO2)ccc1C (stereo not given) do in these assays?
Mtb growth: -3%; Mtb bLac sens: 2; RecA intein inh: -0.4; Arbovirus anti: 5

How did COc1ccc(C(=O)Nc2ccc(S(=O)(=O)N3CCOCC3)cc2)cc1 do in these assays?
Mtb bLac sens: 1; RecA intein inh: -0.3

What do the screens show for `CCOc1ccccc1CN1CCNC(=O)C1CC(=O)NC1CCCCC1` (stereo not given)?
Mtb bLac sens: 2; RecA intein inh: -0.8

What do the screens show for `COC(=O)c1nc2ccc(N3CCOCC3)cc2c(C)c1C(=O)OC`?
Mtb growth: 1%; Mtb bLac sens: -2; RecA intein inh: -60; Arbovirus anti: 0

How did CC(CCc1ccc(O)cc1)NC1c2ccccc2-c2ccccc21 (stereo not given) do in these assays?
Mtb bLac sens: 15; RecA intein inh: 1.5

Results for Cc1cc(N2CCN(c3ccccc3)CC2)nc(-c2ccccc2O)n1 ?
Mtb growth: -7%; Mtb bLac sens: -11; YopH inh: -13; Arbovirus anti: -29

How did CC(O)c1nc2ccccc2n1CC(=O)Nc1ccc2c(c1)OCCO2 (stereo not given) do in these assays?
Mtb growth: 1%; Mtb bLac sens: -4; RecA intein inh: 1.9; Arbovirus anti: 2

What do the screens show for `CCn1c(=NC(=O)CSC(C)=O)sc2cc(OC)ccc21`?
Mtb growth: 4%; Mtb bLac sens: 2; RecA intein inh: 0.9; YopH inh: -28; Arbovirus anti: -4; Arbovirus anti repeat: -1

Results for CN(C)c1ccc(N2C(=NC(=O)CCC3CCCC3)SC3CS(=O)(=O)CC32)cc1 (stereo not given) ?
Mtb bLac sens: 4; RecA intein inh: -0.4

What do the screens show for `COc1cc([N+](=O)[O-])ccc1NC(=O)NCC1CCN(Cc2ccc(Cl)cc2)CC1`?
Mtb bLac sens: 26; RecA intein inh: 4.6

How did CSc1nc2oc3c(c2c2nncn12)CC(C)(C)SC3 do in these assays?
Mtb growth: 1%; Mtb bLac sens: 1; RecA intein inh: -1.0; YopH inh: -42; Arbovirus anti: 5

How did C=C(C)CSc1nnc([C@H](CCSC)NC(=O)OC(C)(C)C)o1 do in these assays?
Mtb growth: 5%; Mtb bLac sens: -13; RecA intein inh: 0.7; YopH inh: -13; Arbovirus anti: 3

How did Oc1ccc(/C=N/NC(=S)NCC2CCCO2)cc1 (stereo not given) do in these assays?
Mtb growth: -1%; Mtb bLac sens: -3; RecA intein inh: -2.1; YopH inh: -20; Arbovirus anti: -4

Results for CCOC(=O)N1CCN(S(=O)(=O)c2ccc(C(=O)Nc3sc4c(c3C(N)=O)CCN(CC)C4)cc2)CC1 ?
Mtb bLac sens: -3; RecA intein inh: -1.7

Results for Cc1cc(NC(=O)c2ccc(-c3ccc(F)c(Cl)c3)o2)no1 ?
Mtb growth: 6%; Mtb bLac sens: 1; RecA intein inh: -0.6; Arbovirus anti: 4

How did COc1cc(NS(=O)(=O)c2ccc(Nc3nc(-c4ccccn4)cs3)cc2)nc(OC)n1 do in these assays?
Mtb growth: 5%; Mtb bLac sens: 2; RecA intein inh: 4.3; Arbovirus anti: 11

Results for C=CCN1/C(=C(\C#N)C2=NS(=O)(=O)c3ccccc32)N(C)c2ccccc21 ?
Mtb growth: -1%; Mtb bLac sens: -8; RecA intein inh: -3.7; YopH inh: -18; Arbovirus anti: 1

Results for CCCCc1nc(N2CCNCC2)c(C#N)c2c1CSC(C)(C)C2 ?
Mtb bLac sens: 10; YopH inh: -10; Arbovirus anti: -31

How did O=C(O)CN1CCN(Cc2ccc(Cl)cc2)C1=O do in these assays?
Mtb growth: 1%; Mtb bLac sens: 3; RecA intein inh: 1.7; YopH inh: -13; Arbovirus anti: 11

How did Cc1cc(NS(=O)(=O)c2ccc(NC(=O)CCCOc3cccc(C)c3C)cc2)no1 do in these assays?
Mtb bLac sens: 5; RecA intein inh: 2.5

How did OC12CCCCC1C(c1ccc3c(c1)OCO3)N(Cc1ccccc1F)CC2 (stereo not given) do in these assays?
Mtb bLac sens: -1; RecA intein inh: 3.6; YopH inh: -24; Arbovirus anti: -16

How did Cc1c(NS(=O)(=O)N2CCCCC2)c(=O)n(-c2ccccc2)n1C do in these assays?
Mtb growth: -8%; Mtb bLac sens: -6; RecA intein inh: -0.9; YopH inh: 4; Arbovirus anti: -3

What do the screens show for `CC(C)CCn1c(SCC(=O)NC2CCS(=O)(=O)C2)nc2cc(Cl)ccc2c1=O` (stereo not given)?
Mtb bLac sens: -1; RecA intein inh: -6.5

What do the screens show for `CCCCC(=O)Nc1ccc(C(=O)NN2C(=O)c3ccccc3C2=O)cc1`?
Mtb growth: -2%; RecA intein inh: -1.6; YopH inh: -26; Arbovirus anti: 1

Results for O=C(NC(=S)Nc1ccccc1N1CCCC1)c1ccccc1[N+](=O)[O-] ?
Mtb growth: 52%; Mtb bLac sens: 15; RecA intein inh: 3.7; YopH inh: -16; Arbovirus anti: 4

What do the screens show for `COc1ccc(NC(=S)NCCCn2ccnc2)cc1`?
Mtb growth: -13%; Mtb bLac sens: -9; RecA intein inh: 0.6; YopH inh: -42

How did N#Cc1c(SCc2ccccc2)nc(N2CCOCC2)c2c1CCCC2 do in these assays?
Mtb growth: 2%; Mtb bLac sens: 40; YopH inh: -33; Arbovirus anti: -17

What do the screens show for `COc1ccc(C2C(=O)c3ccccc3C2=O)cc1`?
Mtb growth: -8%; Mtb bLac sens: 1; RecA intein inh: 1.0; YopH inh: -53; Arbovirus anti: -10

How did COc1cc(NC(=S)N2CCN(S(=O)(=O)c3ccccc3)CC2)cc(OC)c1 do in these assays?
Mtb bLac sens: 1; RecA intein inh: 0.4

What do the screens show for `CC(=O)c1ccc(NC(=O)NC2CCCCCCC2)cc1`?
Mtb bLac sens: 100; RecA intein inh: 0.6

How did O=C(CSc1nccn(-c2ccc(Br)cc2)c1=O)NC1CCCC1 do in these assays?
Mtb bLac sens: -13; RecA intein inh: -2.2

Results for CC(=O)c1ccc(N2CCN(C(=O)C3CCCN(c4ncnc5c4nc4n5CCCCC4)C3)CC2)cc1 (stereo not given) ?
Mtb bLac sens: 1; RecA intein inh: -0.9

What do the screens show for `C=CCn1c(SCC(=C)C)nc2c1c(=O)[nH]c(=O)n2C`?
Mtb growth: 4%; Mtb bLac sens: -5; RecA intein inh: 0.8; Arbovirus anti: 8; Arbovirus anti repeat: 7

How did COc1ccccc1N(O)C1CC(=O)N(c2ccc(F)cc2)C1=O (stereo not given) do in these assays?
Mtb growth: 0%; Mtb bLac sens: 21; RecA intein inh: -0.1; YopH inh: -1; Arbovirus anti: 5

How did CCOC(=O)c1nn(-c2ccccc2C)c2nc(CC(C)C)c(C#N)c(=O)n12 do in these assays?
Mtb growth: 1%; Mtb bLac sens: -15; RecA intein inh: -0.1; YopH inh: -17; Arbovirus anti: 4

How did NNC(=O)C12CC3CC(C1)CC(n1ncnn1)(C3)C2 do in these assays?
Mtb growth: -19%; Mtb bLac sens: -4; RecA intein inh: -1.9; YopH inh: -33; Arbovirus anti: 2

Results for Cc1cc(NCCc2ccccc2F)n2ncnc2n1 ?
Mtb growth: -11%; Mtb bLac sens: 0; RecA intein inh: 2.2; Arbovirus anti: 6

What do the screens show for `CCCCN(C(=O)/C=C/c1ccco1)c1c(N)n(CCC)c(=O)[nH]c1=O`?
Mtb growth: 2%; Mtb bLac sens: -2; RecA intein inh: 0.1; Arbovirus anti: 5

Results for CC(C)c1onc(C(=O)Nc2ccc3c(c2)OCO3)c1[N+](=O)[O-] ?
Mtb bLac sens: -2; RecA intein inh: 2.2

Results for CCN(CC)C(=O)C1CCCN(C(=O)c2cc(COc3ccc4ncccc4c3)on2)C1 (stereo not given) ?
Mtb bLac sens: 1; RecA intein inh: -2.0

How did COc1ccc(S(=O)(=O)N(C)C)cc1NC(=O)Cc1cccs1 do in these assays?
Mtb growth: -5%; Mtb bLac sens: 3; RecA intein inh: 5.8; Arbovirus anti: 6

What do the screens show for `COC(=O)c1nn(C23CC4CC(CC(C4)C2)C3)c2c1C(=O)N(c1ccc(Br)cc1)C2=O`?
Mtb growth: -8%; Mtb bLac sens: -1; RecA intein inh: -2.5; YopH inh: -21; Arbovirus anti: 7

How did COc1cc2c(cc1OC)C(c1ccc(-c3ccc(Cl)c(Cl)c3)o1)=NCC2 do in these assays?
Mtb growth: 6%; Mtb bLac sens: 98; RecA intein inh: 11; YopH inh: -10; Arbovirus anti: -29

What do the screens show for `Cc1cccc(/C=C/c2onc(C)c2S(=O)(=O)N2CCC(C(=O)N3CCCCC3)CC2)c1`?
Mtb bLac sens: 1; RecA intein inh: 3.0

What do the screens show for `Cc1ccc(-n2[nH]c(C)c(/C=N/Nc3ccc([N+](=O)[O-])cc3[N+](=O)[O-])c2=O)cc1`?
Mtb growth: 2%; Mtb bLac sens: -1; RecA intein inh: 0.6; YopH inh: 2; Arbovirus anti: 10

Screens from PubChem BioAssay.

An excerpt, so the mix of outcomes need not match the whole.
